Screening data (PubChem)
HCMV UL50-53 inh: disrupts HCMV UL50-UL53 complex binding; HTRF UL50-UL53 interaction, normalized percent inhibition; hit rate 0.15% among 190,000; inhibition, % (concentration not given with the values); AID 1918969;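 active = both replicates at 50% or more, plus weaker picks with an unusually low signal ratio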;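 note: stock transfer was 100 nL into about 20 µL; 0% = negative control wells and 100% = wells with untagged competitor protein; inactives centre near -12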
GIV-Gai inh: GIV-Galpha-i interaction inhibition; percent of control (FP), % (concentration not given with the values); hit rate 0.42% among 210,000; AID 1224905; Galpha-i3/FITC-GIV peptide fluorescence polarization, 90 min; hits give low values; scaled: aluminum fluoride 0%, vehicle 100%;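 active = replicate mean at 85% of control or lower, very high polarization wells dropped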;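 note: wells of about 15 µL received 100 nL stock; the first replicate is given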
Target sequence (P08753 whole entry, looked up): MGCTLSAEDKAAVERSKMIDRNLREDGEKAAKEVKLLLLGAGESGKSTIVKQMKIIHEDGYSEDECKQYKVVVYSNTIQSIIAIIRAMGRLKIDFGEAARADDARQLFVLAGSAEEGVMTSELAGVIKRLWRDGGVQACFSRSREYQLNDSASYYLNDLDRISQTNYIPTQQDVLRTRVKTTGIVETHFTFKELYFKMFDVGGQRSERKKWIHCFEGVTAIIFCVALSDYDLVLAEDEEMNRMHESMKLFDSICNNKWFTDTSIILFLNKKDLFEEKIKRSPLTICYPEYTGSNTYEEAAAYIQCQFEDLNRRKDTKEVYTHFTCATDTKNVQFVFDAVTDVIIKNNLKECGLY
Sa growth inh: S. aureus growth inhibition. S. aureus RN4220 growth, OD600, 20 h, 42 °C; hits give low values. relative growth, % (no concentration beside the values). hit rate 0.53% among 170,000. AID 720641;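 active = growth at 42 °C up to 50% and 20 or more points under that at 30 °C, or under 10% at both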;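 note: 300 nL library stock went into each well; scaled to the means of positive and negative controls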
Sa growth inh second temp: further read-out of Sa growth inh, marked with its call; relative growth, %; measured here: growth at 30 °C;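 optical density after 20 h as mean of two plates; 100% = untreated growth and lower means inhibition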
* = called active by the depositor; · = not tested or not shown; & = joins results of further samples.

smiles	Sa growth inh	GIV-Gai inh	HCMV UL50-53 inh	Sa growth inh second temp
Cc1onc(-c2ccccc2)c1N1C(=O)CCN(C(C)C)C1=O	94	104	-18	90
CC1=C(C(=O)Nc2cccnc2)C(c2ccc(F)cc2)n2nc(-c3cccc(C)c3)nc2N1 (stereo unspecified)	106	101	-30	87
O=C(NCc1ccc(F)cc1)c1ccc(-n2nnc3cccnc32)cc1	·	108	-32	·
CC(C)CCNC(=O)CCCCn1c(=O)c2ccccc2n(CC(=O)NC(C)C)c1=O	·	107	-26	·
COc1ccc(CCNC(=O)Cn2c(C)c3cnn(-c4ccccc4)c(=O)c3c2C)cc1OC	113	107	0	89
CCOC(=O)c1cccc(NC(=O)c2nn(C)c(C(F)(F)F)c2Cl)c1	·	99	4	·
COc1ccc(NC(=O)CSc2nc(-c3ccc(OC)cc3)[nH]c2-c2ccc(OC)cc2)cc1	107	103	-12	78
COc1ccc(-n2cc(C(=O)N(C)Cc3ccco3)c3ccccc3c2=O)cc1	90	101	-3	82
COc1ccc(CCNC(=O)c2cc(-c3ccc(C)cc3)nc3n[nH]c(-c4ccc(F)cc4)c23)cc1OC	117	108	·	84
CCc1nnc(NC(=O)c2ccc(S(=O)(=O)N3CC(C)CC(C)C3)cc2)o1 (stereo unspecified)	9.0*	107	-43	1.1*
CC(CNC(=O)c1nnc(-c2ccc3c(c2)OCO3)o1)c1ccccc1 (stereo unspecified)	89	105	0	96
CCC(CC)=NNC(=O)c1ccc(Cl)cc1	95	·	-9	95
CCSc1nnc2n(/N=C/c3cccs3)cnn12	98	·	-95	71
CSc1c(C#N)c(-c2cccs2)nn1CNC(=O)Nc1ccccc1C(F)(F)F	114	104	16	96
Nc1ccccc1C(=O)NCCc1ccccc1	84	·	-22	89
Cc1ccc(Nc2nnc(-c3ccc(C)c(S(N)(=O)=O)c3)c3ccccc23)cc1	67	109	·	69
O=C(c1cc2c(s1)CCCC2)N1CCCC1c1nc2ccccc2s1 (stereo unspecified)	108	·	-6	89
CC1CCN(C(=O)CN2C(=O)C(=O)c3ccccc32)CC1	·	98	-19	·
OC1(C(F)(F)F)NN=C2C=Cc3ccccc3N21 (stereo unspecified)	67	·	-31	50
CC(=O)N1CCCc2cc(S(=O)(=O)N3CCC(C(=O)N(Cc4ccccc4)C(C)C)CC3)ccc21	107	96	·	82
CC(C)Oc1ccc(CNC(=O)c2ccc3c(c2)nc2n3CCOC2)cc1	102	106	·	92
CCOC(=O)C1=C(CN2CCN(c3ccccc3)CC2)NC(=O)NC1c1ccc(C)cc1 (stereo unspecified)	88	111	-3	98
Cc1cc(C)n(C2=NS(=O)(=O)c3ccccc32)n1	113	107	-15	89
COc1cc2c(=O)c(S(=O)(=O)c3ccc(F)cc3)cn(Cc3ccc(Cl)cc3)c2cc1OC	101	108	8	83
CCCCn1c(C(C)NC(=O)c2ccccc2)nc2ccccc21 (stereo unspecified)	92	109	14	90
CC1CCCC(NC(=O)/C=C2\Sc3ccccc3NC2=O)C1C (stereo unspecified)	119	101	·	79
CCOC(=O)c1oc2ccc3c(c2c1C)C(=O)CC1(CCC(C)CC1)O3 (stereo unspecified)	83	107	-5	86
CCOc1ccccc1N(C)C(=O)Cc1c(C(=O)O)c(C)cn1C	91	101	-20	96
CCOC(=O)c1ccc(N2CC(O)=C(c3nc4ccccc4s3)C2=N)cc1	108	110	1	93
Cc1ccc(Cl)cc1NC(=O)CSC1=Nc2ccccc2C2=NC(Cc3ccccc3)C(=O)N12 (stereo unspecified)	104	99	·	87
CCC(C(=O)NC1CCC(C)CC1)n1c2ccccc2c2cn[nH]c(=O)c21 (stereo unspecified)	108	102	·	85
CC(C)OCCCNc1ncnc2ccccc12	91	99	-28	78
NC(=O)COC(=O)c1cncc(Br)c1	101	·	-25	81
CCOC(=O)C1CCN(c2nc3ccccc3n3c(=O)n(CC(=O)NC4CCCCC4)nc23)CC1	·	105	-36	·
CN(Cc1ccccc1)C(=O)C1CCN(S(=O)(=O)c2cccc3nsnc23)CC1	·	100	-92	·
COc1cc(NS(=O)(=O)c2ccc(NC(=O)c3sc4ccccc4c3Cl)cc2)nc(OC)n1	·	102	-19	·
COc1ccccc1CNC(=O)c1cc(C)c2c(C)nn(-c3ccccc3Cl)c2n1	106	101	·	90
CC(=O)c1cccc(NC(=O)c2ccc3c(c2)c(C)c(C)n3Cc2ccc(Cl)cc2)c1	111	107	·	92
COCCn1c(=NC(=O)CSCC(=O)NC2CCCCC2)sc2cc(OC)ccc21	87	103	3	89
C=CCN1C(=NC(=O)C(CC)CC)SC2CS(=O)(=O)CC21 (stereo unspecified)	98	103	-10	84
Cc1ccc(C(=O)Nc2ccc(F)cc2)cc1NC1=NC2CS(=O)(=O)CC2S1 (stereo unspecified)	·	104	-25	·
CNc1ccccc1C(C)(C)c1cc(-c2ccco2)n[nH]1	63	·	-19	83
CN1/C(=C\P(=O)(C2CCCCC2)N2CCOCC2)C(C)(C)c2ccccc21 (stereo unspecified)	74	·	-23	87
O=C(NCc1ccc2c(c1)CCO2)c1ccccc1	105	97	-2	103
CCOC(=O)c1c(C)n(C(=O)c2ccco2)c(=O)n1C(=O)c1ccco1	81	99	-4	94
CCOc1ccc(NCC(=O)n2nc(C)cc2C)cc1	94	·	-22	73
Cc1ccn2c(=O)c(C(=O)NC(C)c3ccccc3)c(O)nc2c1 (stereo unspecified)	77	101	8	84
Cc1ccn2c(=O)c(NC(=O)COc3ccccc3)c(C)nc2c1	111	110	-13	92
O=C(Nc1cccc(Cl)c1Cl)c1cc(S(=O)(=O)N2CCC3(CC2)OCCO3)ccc1F	115	101	·	92
Cn1c(N)c(S(=O)(=O)NC2CCCCC2)c(=O)n(C)c1=O	94	106	21	100
COC(=O)c1cc(=O)n(C)c(=Nc2ccc(F)cc2)s1	76	97	·	72
CCOC(=O)C1CCN(C(=O)c2ccccc2F)CC1	101	102	-1	110
Cc1c2oc3c(c2cc2c4c(c(=O)oc12)CCCC4)CCCC3	95	105	-15	87
Cc1cccc(C(=O)Nc2c(C(=O)NCc3ccc(Cl)cc3)sc3nc(C)cc(C)c23)c1	85	100	-46	90
CC(=O)Nc1ccc(NC(=O)C(C)OC(=O)C2CC(=O)N(CCc3ccccc3)C2)cc1 (stereo unspecified)	87	·	-31	81
Fc1ccc(-c2ccc(CNCCCn3ccnc3)o2)cc1Cl	·	107	-10	·
CS(=O)(=NS(=O)(=O)c1cccc2nsnc12)c1ccccc1 (stereo unspecified)	99	98	-18	92
O=C(NCc1ccccc1Cl)C1CCN(c2ncnc3c2sc2cccc(F)c23)CC1	·	111	21	·
O=C(C1CCCN(S(=O)(=O)c2ccccc2)C1)N1CCCCC1 (stereo unspecified)	119	105	·	90
C[N+]1(Cc2ccco2)Cc2ccccc2C1	105	104	·	87

Next structures
smiles	Sa growth inh	GIV-Gai inh	HCMV UL50-53 inh	Sa growth inh second temp
COc1ccc(C(=O)Nc2ccc3oc(-c4cc(Cl)ccc4Cl)nc3c2)cc1Br	93	111	-64	93
c1ccc(Cc2nc(NCc3ccco3)c3c4c(sc3n2)CCCC4)cc1	·	106	-13	·
COCCNC(=O)C1(C)Cn2nc(-c3ccccc3)cc2C(=O)N1Cc1ccc(C)cc1 (stereo unspecified)	·	97	-12	·
Cc1ccc(Nc2ncnc3c2nc2n3CCCCC2)c(Br)c1	·	104	-1	·
O=S(=O)(c1ccccc1)c1ccc(N2CCN(c3ccccc3)CC2)nn1	·	97	16	·
O=C(NCCCN1CCC(Cc2ccccc2)CC1)c1nnc(-c2cccc(Cl)c2)o1	100	102	-7	46
Cc1ccc(NC(=O)N(C)C)cc1	83	107	-37	84
CS(=O)(=O)/C(C#N)=C/c1ccsc1Sc1ccc(Cl)cc1	109	101	-20	85
CCc1ccc2oc(C(=O)Nc3ccccc3OC)cc(=O)c2c1	102	102	-1	89
Cc1ccc(NC(=O)CSc2nc3c(sc4ccccc43)c(=O)n2CC2CCCO2)cc1C (stereo unspecified)	100	101	·	90
O=C(CSc1nnc2n(Cc3ccco3)c(=O)c3sccc3n12)Nc1ccc2c(c1)OCO2	·	100	-2	·
O=C(NCCSc1c[nH]c2ccccc12)C1CC1	97	112	-13	76
O=C(c1ccc(F)cc1)N1CCC(c2noc(-c3ccc(S(=O)(=O)N4CCCC4)cc3)n2)CC1	·	93	-11	·
O=C(OCCn1ncc2ccccc2c1=O)c1ccc(F)cc1Cl	101	103	-16	95
COc1ccc(S(=O)(=O)NCC(=O)N(C)Cc2cccc(F)c2)cc1	81	·	-13	85
c1ccc(-n2nc3ccc4nonc4c3n2)cc1	96	100	-31	92
Cc1ccccc1/C=N/NC(=O)c1ccc(-n2cnnn2)cc1	99	·	-23	95
CCCN1Cc2cccc(C(=O)NC(C)c3ccc4c(c3)OCCO4)c2C1=O (stereo unspecified)	75	100	-5	78
c1ccc(Sc2nc(-c3ccccc3)ns2)cc1	110	102	-19	91
CC(N=Cc1cc(Cl)ccc1O)c1ccc2c(c1)OCCO2 (stereo unspecified)	104	104	1	101
Oc1ccc(Br)cc1C=NCC12CCC3CC(CC(C3)C1)C2	103	102	·	89
N#CCn1c(-c2ccc(Cl)cc2)noc1=O	136	102	-11	80
O=C(CSc1nnc(-c2ccncc2)o1)Oc1ccccc1	123	102	-81	89
O=C1S/C(=C/c2ccco2)C(=S)N1c1ccccc1	78	108	-28	78
CCC(Sc1nc2sc(C(=O)OC)c(C)c2c(=O)n1N)C(=O)NC1CCCC1 (stereo unspecified)	108	102	-8	94
Cn1c(=O)cc(OCC(=O)N2CCN(c3ccc(F)cc3)CC2)c2ccccc21	94	107&100	-25&-2	87
Cc1ccc(C)c(CN2C(=O)c3ccccc3S(=O)(=O)c3ccc(C(=O)N4CCCCC4)cc32)c1	103	101	-26	87
Cc1ccc(S(=O)(=O)N(C)/N=C/c2cccc(Br)c2)cc1	93	107	·	78
Cc1cc(C)n(-c2nc3cc(Cl)ccc3nc2N2CCN(c3cccc(C)c3C)CC2)n1	108	101	-3	86
COc1ccc(-n2c(C)cc(C(=O)COC(=O)Cn3cnc4ccccc43)c2C)cc1	104	·	-24	51
N#Cc1nc(-c2ccccc2)oc1NCc1ccco1	114	·	1	89
CCOc1ccc(NC(=O)CN2CCN(CC(=O)Nc3ccc(F)cc3F)CC2)cc1	92	95	·	84
COC(=O)c1c(CSC(=N)N)nc2n(Cc3ccccc3)c3ccccc3n12	71	·	-10	0
O=C(Nc1ccccc1C(=O)O)c1cccc(S(=O)(=O)N2CCCC2)c1	104	103	-5	89
O=C(CCc1nnc2n(Cc3ccc(F)cc3)c(=O)c3ccccc3n12)NC1CCCCCC1	85	96	·	91
CCCc1nn(S(=O)(=O)c2ccc(F)cc2F)cc1C(=O)OCC	76	96	-11	91
CC(C)(C)NC(=O)N1CCN(c2nc(-c3ccccc3)ns2)CC1	93	104	-15	85
CCOc1ccc(C(=O)N2CCCC2)cc1	84	·	-9	106
CCc1ccc2occ(CC(=O)NCc3ccccc3)c2c1	107	111	17	89
CSc1ccccc1C(=O)NCCN1CCOCC1	99	99	-7	101
Cc1cc(NC(=O)c2ccc(C(C)(C)C)cc2)n(-c2ncnc3c2cnn3-c2ccc(F)cc2)n1	·	106	-14	·
CC(C)(C)c1ccccc1NC(=O)CSc1nc(-c2cccs2)cc(C(F)(F)F)n1	95	103	-4	95
COc1ccccc1NC(=O)CSc1nc2nccnc2c(=O)n1CCc1c[nH]c2ccccc12	91	98	-30	91
FC(F)(F)c1ccc2cccc(C(F)(F)F)c2n1	89	101	-4	82
Clc1cccc(Oc2ncnc3sccc23)c1Cl	113	·	-33	85

Six neighbouring records already listed, for reference:
smiles	Sa growth inh	GIV-Gai inh	HCMV UL50-53 inh	Sa growth inh second temp
CCC(CC)=NNC(=O)c1ccc(Cl)cc1	95	·	-9	95
CCSc1nnc2n(/N=C/c3cccs3)cnn12	98	·	-95	71
CSc1c(C#N)c(-c2cccs2)nn1CNC(=O)Nc1ccccc1C(F)(F)F	114	104	16	96
Nc1ccccc1C(=O)NCCc1ccccc1	84	·	-22	89
Cc1ccc(Nc2nnc(-c3ccc(C)c(S(N)(=O)=O)c3)c3ccccc23)cc1	67	109	·	69
O=C(c1cc2c(s1)CCCC2)N1CCCC1c1nc2ccccc2s1 (stereo unspecified)	108	·	-6	89

Going on with the list.
smiles	Sa growth inh	GIV-Gai inh	HCMV UL50-53 inh	Sa growth inh second temp
O=C(Nc1ccccc1)N(O)c1ccc(Cl)cc1	48	96	·	34
Cc1cc(NC(=O)CSCc2ccco2)no1	95	104	-14	91
CCc1nc(C)cn1S(=O)(=O)c1ccc(C)cc1	·	106	-7	·
CN(C)CC#Cc1cncc(C(=O)NN)c1	91	108	7	94
